D2 ag: activates the human D2 dopamine receptor | P14416 | DiscoveRx PathHunter D2 beta-arrestin, luminescence, 90 min; 100% = 57 uM dopamine signal | activation, % (test concentration not listed) | actives 0.084% (n = 360,000) | AID 624465; in the data active = activation above about 40%; inconclusive = about 15% to 40%; inactive = below about 15%; also: compound concentration not given in the record; the text of the record calls up to 30% inactive
Target sequence (P14416 whole entry, looked up): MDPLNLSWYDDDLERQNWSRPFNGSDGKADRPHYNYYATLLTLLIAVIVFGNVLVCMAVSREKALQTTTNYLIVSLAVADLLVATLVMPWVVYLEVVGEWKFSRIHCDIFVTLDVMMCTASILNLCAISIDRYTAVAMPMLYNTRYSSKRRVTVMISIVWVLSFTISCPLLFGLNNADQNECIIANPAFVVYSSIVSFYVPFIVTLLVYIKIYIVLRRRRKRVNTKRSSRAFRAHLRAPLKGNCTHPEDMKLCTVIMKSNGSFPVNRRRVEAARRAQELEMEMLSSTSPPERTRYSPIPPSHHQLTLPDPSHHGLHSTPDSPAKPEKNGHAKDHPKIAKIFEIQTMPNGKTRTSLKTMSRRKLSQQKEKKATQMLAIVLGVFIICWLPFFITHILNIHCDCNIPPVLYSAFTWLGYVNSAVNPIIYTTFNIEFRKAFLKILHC
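Agonist mode: compounds alone added to overnight-plated D2 PathHunter cells for 90 min at 37 C, with 57 uM final dopamine (EC100) defining full response. Beta-arrestin recruitment detected by chemiluminescent reagent, read after 1 h at ambient temperature.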
Six1-Eya2 blk: inhibitors of human Six1/Eya2 interaction; Q15475+O00167; AlphaScreen GST-Six1/His-Eya2 binding, biochemical; stronger effect = lower value; control for the full effect not named in the record; activity change, % (no concentration beside the values); actives 0.56% (n = 360,000); in the data active = activity change below about -65%; inconclusive = about -30% to -65%; inactive = above about -30%; also: % is scaled to controls: 0 for no effect and ±100 for the full control effect; compound concentration not given in the record
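Homogeneous AlphaScreen proximity assay pairing GST-Six1 with His-tagged Eya2 (added as 5X mix: 250 nM and 500 nM) in 50 mM Tris pH 8.0, 300 mM NaCl, 1 mM TCEP. Glutathione donor and nickel acceptor beads; 1 h, 37 °C, dark.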
PINK1 modulator: modulators of PINK1 expression | PINK1 immunofluorescence, high-content cytometry, 24 h | AID 624263 | Potency, µM (doses to about 76.6 µM), without a hit: at the highest dose activation (PINK1 increase), most hits filed as activators | actives 0.2% (n = 410,000); active = well fitted activation curve with a large enough effect; inconclusive = small, poorly fitted or top-dose-only effect; inactive = flat fitted curve, though single readings scatter; cell line not stated here;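 also: potency is read from the fitted curve at half-maximal effect; % of control where 0% means no effect; nearly all actives have a fitted effect of over 65% in size; a mitochondrial uncoupler was the plate control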
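Fluorescence from anti-PINK1 antibody, together with nuclear and cell stains, was scanned on a laser-scanning cytometer. Before staining, stable-line cells were incubated 24 hours with compounds at 5 concentrations; primary antibody 12 h at 10 degrees C.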
CtBP-E1A inh: blocks the CtBP interaction with E1A; AlphaScreen GST-E1A/His-CtBP binding, 1536-well; stronger effect = lower value; control for the full effect not named in the record; activity change, % (concentration not given with the values); actives 0.49% (n = 340,000); AID 651724; in the data active means activity change below about -65%; inconclusive means about -30% to -65%; inactive means above about -30%; also: % is scaled to controls: 0 for no effect and ±100 for the full control effect
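Homogeneous bead-based format: GST-tagged E1A captured on glutathione donor beads, His-tagged CtBP on nickel acceptor beads; compounds precede bead addition by 2 h at 37 °C.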
TRPML1 agonist: activates the human TRPML1 channel | Q9GZU1 | TRPML1-expressing cells, Ca2+ dye fluorescence, FDSS; host cell line not named in the record; reference of the full effect not given here | AID 624414 | actives 0.12% (n = 410,000) | activation, % (concentration not given with the values); in the data active = activation above about 50%; inconclusive = about 30% to 50%; inactive = below about 30%; also: 0% is about no effect; the text of the record puts the active cut at 80%
Target sequence (Q9GZU1 whole entry, looked up): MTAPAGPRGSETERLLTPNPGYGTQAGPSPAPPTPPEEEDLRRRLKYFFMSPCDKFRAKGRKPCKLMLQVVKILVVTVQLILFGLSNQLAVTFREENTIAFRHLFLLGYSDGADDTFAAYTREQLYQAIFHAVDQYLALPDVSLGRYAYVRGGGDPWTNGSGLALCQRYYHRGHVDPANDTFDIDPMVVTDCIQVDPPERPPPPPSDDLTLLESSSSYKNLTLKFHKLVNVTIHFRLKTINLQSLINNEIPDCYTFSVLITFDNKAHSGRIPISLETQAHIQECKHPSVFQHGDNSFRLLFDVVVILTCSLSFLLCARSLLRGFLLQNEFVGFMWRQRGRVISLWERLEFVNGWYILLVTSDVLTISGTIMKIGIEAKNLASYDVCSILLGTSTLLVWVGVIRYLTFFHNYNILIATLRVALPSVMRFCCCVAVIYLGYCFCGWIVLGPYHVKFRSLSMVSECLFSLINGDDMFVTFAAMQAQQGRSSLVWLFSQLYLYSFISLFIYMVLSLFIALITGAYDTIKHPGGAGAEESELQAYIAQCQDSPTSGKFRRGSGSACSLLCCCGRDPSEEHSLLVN
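Calcium fluorescence on an FDSS kinetic reader gave the read-out. Tet-induced TRPML1-DL cells were plated overnight, dye-loaded (Ca8 with quencher, 45-90 min, room temperature, dark), then read 110 s after compound addition, and again 110 s after 4uM final 54-4 (EC80).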
TRPML1 inh: human mucolipin-1 channel inhibition | Q9GZU1 | TRPML1-inducible cells, Ca2+ dye fluorescence, FDSS; stronger effect = lower value; inhibition of EC80 agonist-evoked calcium signal | activity change, negative = inhibition, % (test concentration not listed) | actives 0.02% (n = 390,000); in the data active means activity change below about -50%; inconclusive means about -30% to -50%; inactive means above about -30%;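 also: stimulus is agonist 54-4 at its EC80 concentration; % is scaled to controls: 0 for no effect and ±100 for the full control effect; compound concentration not given in the record; the text of the record puts the active cut at -80%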
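Calcium fluorescence in TRPML1-DL cells induced overnight with Tet: a 110 s read after compound pin addition, then a 110 s antagonist read after challenge with 54-4 at 4 uM final (EC80).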
* hit, by the source's call; ? = inconclusive; nt = no result given; & = joins results of further samples; [ ] = remark or other dose.

SMILES | D2 ag | Six1-Eya2 blk | PINK1 modulator | CtBP-E1A inh | TRPML1 agonist | TRPML1 inh
COCCN(C(=O)CNC(=O)c1ccco1)C(C(=O)NC1CCCC1)c1ccccc1F (stereo unspecified) | 2.2 | 8 | 4.3% | 6 | -0.8 | -1
Cn1cc(S(=O)(=O)Nc2ccc(OC(F)(F)F)cc2)c(=O)n(C)c1=O | -1.4 | 6 | 4.4% | 8 | -0.2 | 6
CCCCOC(=O)c1cccc(NC(=O)CCC(=O)O)c1 | -0.7 | 5 | 1.5% | 5 | 0.1 | -9
O=S(=O)(/C=C/c1ccccc1)N1CCN(c2nc(-c3cccnc3)nc3ccccc23)CC1 | 0.1 | -4 | -0.2% | -3 | 0.5 | -10
CC(C)OCCCNC(=O)c1ccccc1Oc1ccccc1 | 1.1 | 6 | 2.7%[38.3 µM] | 6 | 2.2 | 10
CC1(C)NC(=O)N(CC(=O)OCC(=O)c2ccc(Br)s2)C1=O | -4.0 | 6 | -0.5% | 6 | -0.8 | 4
O=C(COC(=O)c1c2c(nc3ccccc13)CCN(Cc1ccccc1)C2)Nc1c(F)cccc1F | 2.8 | -21 | -3.9% | -10 | -0.3 | -4
CCCN1C(=O)c2ccc(C(=O)NC3CCCCC3)cc2C1=O | -1.0 | 2 | -3.2% | 5 | 3.9 | 28
O=C(CN1CCCC1c1cccs1)N1CCN(S(=O)(=O)c2cccc(F)c2)CC1 (stereo unspecified) | -2.0 | 0 | 1.7% | -15 | 1.7 | -10
Cc1ccc(-n2cc(CNCCCN3CCCC3=O)c(-c3ccc(F)cc3)n2)cc1 | 6.7 | -4 | 8.9% | 2 | 1.7 | 14
CN1C(=O)C(C)(C)c2cc(S(=O)(=O)N3CCCC(C(=O)NCc4ccc(Cl)cc4)C3)ccc21 (stereo unspecified) | 7.4 | 0 | 0.9% | 4 | -0.5 | 10
COc1ccc([C@@H]2C[C@@H](c3ccccc3)Oc3cc(OC)cc(OC)c32)cc1 | -1.3 | -2 | 2.9% | 0 | 0.9 | -17
NC(=O)c1ccccc1N/C=C/C(=O)c1ccc(F)cc1 | -1.2 | -11 | -0.1% | nt | -0.1 | 2
CS(=O)(=O)Nc1nc2n(n1)C(c1ccccc1)C=C(c1ccc(Br)cc1)N2 (stereo unspecified) | ? | -5 | -0.2% | 4 | ? | 6
CCOC(=O)[C@H]1[C@H]2COc3ccc(Br)cc3[C@@H]2N2C(=O)CN(Cc3ccc(OC)cc3)C(=O)[C@@]12C | 0.7 | -7 | 1.4% | 0 | 0.9 | 73
O=C(c1cc(-c2ccncc2)nc2ccccc12)N1CCCC(C(F)(F)F)C1 (stereo unspecified) | -4.0 | 0 | 1.5% | -1 | -0.8 | 19
O=C(NCc1ccccc1Cl)c1cccc(OC2CCN(C(=O)C3CC3)CC2)c1 | 1.0 | -5 | 0.5% | -2 | 2.1 | 5
COc1ccc(CCN(C)C(=O)c2ccc3c(=O)n4c(nc3c2)CCCCC4)cc1OC | -5.9 | 7 | -1.4% | 0 | 0.2 | 1
COc1cc(C(=O)Nc2ccc(S(=O)(=O)N3CCc4ccccc43)cc2)cc(OC)c1OC | 6.6 | -4 | 1.0% | -16 | -0.6 | -8
Cn1c(=O)cc(-c2ccccc2)c2ccccc21 | -0.6 | 4 | 6.2%[38.3 µM] | 3 | 0.5 | 3
C=CC(=O)N1C/C(=C/c2ccc(F)cc2)C(=O)/C(=C\c2ccc(F)cc2)C1 | -4.9 | ? | -0.9% | 7 | 2.6 | 62
CC(C)COC(=O)Cn1cnc2ccc(Br)cc2c1=O | -3.6 | 12 | 0.3% | 8 | -0.9 | -3
COC(=O)NNC(=O)COc1ccccc1C | -4.1 | 3 | -0.4% | 1 | 0.0 | -10
C[C@H]1CN([C@@H](C)CO)S(=O)(=O)c2ccc(-c3ccccc3)cc2O[C@H]1CN(C)C(=O)C1CCC1 | -2.8 | 9 | 1.3% | -3 | 1.7 | 7

(listing goes on)
Screens in order – D2 ag | Six1-Eya2 blk | PINK1 modulator | CtBP-E1A inh | TRPML1 agonist | TRPML1 inh
> Cc1cccc(N2CCN(C(=O)c3ccc(NC4=NC5CS(=O)(=O)CC5S4)cc3)CC2C)c1 (stereo unspecified)
    -5.8 | -1 | 0.4% | 1 | -0.5 | -16
> CC(=O)c1cc(Cl)ccc1OCC(=O)Nc1cccc(S(=O)(=O)N2CCCC2)c1
    3.5 | -4 | 2.3% | 1 | -0.1 | 3
> O=C(COC(=O)c1ccccc1O)Nc1cc(S(=O)(=O)N2CCCCCC2)ccc1Cl
    0.7 | -2 | 7.3% | -7 | 2.3 | 28
> Cc1ccc(Cl)cc1N1CCN(Cc2nc3ccsc3c(=O)[nH]2)CC1
    -1.6 | -12 | -0.7% | -6 | 1.4 | 26
> CCOc1ccc(N(CC(=O)N2CCN(c3ccc(F)cc3)CC2)S(=O)(=O)c2c(C)noc2C)cc1
    -0.8 | -12 | -0.1% | 2 | -0.3 | 4
> CN(C)CCNC(=O)c1ccc(COCC(F)(F)F)cc1
    0.6 | 3 | -0.5%[38.3 µM] | 6 | 0.4 | -9
> COc1ccc(/C=C\C(=O)c2c(O)ccc3c(C)cc(=O)oc23)cc1
    -3.3 | 0 | -1.8% | 2 | -0.2 | 9
> O=C(Nc1ccc(OC(F)F)c(Cl)c1)[C@@H]1CCCN1C(=O)c1cccs1
    -2.6 | -4 | 1.9% | -1 | -0.5 | 12
> COc1ccccc1Nc1nc2nonc2nc1N1CCCCC1C (stereo unspecified)
    -1.9 | -2 | 1.1% | 2 | 0.3 | 3
> O=C(COC(=O)COc1ccccc1[N+](=O)[O-])NCc1ccc2c(c1)OCO2
    -0.9 | 7 | 1.1% | 11 | 1.7 | -21
> Cc1cccc(-n2c(SCc3nc(-c4ccccc4C)no3)nnc2-c2ccccc2)c1
    nt | nt | -1.4% | nt | 0.3 | 12
> OCCC1CN(Cc2c(O)ccc3ccccc23)CCN1CCc1ccccc1 (stereo unspecified)
    8.7 | -10 | 1.8% | 1 | 0.1 | -2
> COc1ccccc1CNC(=O)c1ccc(CNc2c(N3CCCC3)c(=O)c2=O)cc1
    -1.8 | -2 | -0.8% | 0 | -0.2 | -17
> CC(NC(=O)c1ccccc1Cl)C(=O)N1CCN(Cc2ccc3c(c2)OCO3)CC1 (stereo unspecified)
    -0.3 | -3 | 0.0% | 0 | 0.2 | -9
> Cc1ccc(S(=O)(=O)N(Cc2ccccc2)Cc2ccco2)cc1
    -4.7 | 16 | -2.1% | 14 | 8.2 | 32
> CO/N=C(\C(=O)N[C@@H]1C(=O)N2C(C(=O)O)=C(COC(C)=O)CS[C@H]12)c1csc(N)n1 (stereo in doubt)
    -5.8&-7.4&-0.8 | ? | 3.3%&4.0%&1.2% | 10&-1&-7 | -0.6&0.2&-0.2 | 4&-15&-10
> O=C(CCC(=O)N/N=C/c1ccccc1O)NCc1ccccc1
    -2.4 | ? | -2.8% | ? | 0.3 | 13
> COC(=O)CCCCC1=CCC2C(=O)C=C(O)C2C1 (stereo unspecified)
    -3.2 | ? | -0.3% | 9 | -0.5 | nt
> CCOc1ccc2nc(NC(=O)C34CC5CC(CC(NC(C)=O)(C5)C3)C4)sc2c1
    0.5 | 1 | 2.2% | 0 | 0.6 | 38
> O=C(Nc1ccccc1)C1CCN(C(=O)c2ccccc2)CC1
    -1.6 | 24 | 0.0% | 6 | -0.5 | 6
> Cc1c(C(=O)N2CCOCC2)[nH]c2ccc(OCc3ccccc3)cc12
    1.3 | -9 | -2.4% | -2 | -1.0 | 19
> Cc1cc(C)cc(NS(=O)(=O)c2ccc3[nH]cc(C(=O)NCCc4ccccc4)c(=O)c3c2)c1
    nt | nt | ? | nt | 1.3 | -12
> COc1ccc(-n2c(SCC(=O)/C(C#N)=C(\C)N)nc3ccccc3c2=O)cc1OC
    -1.6 | -3 | 0.7% | nt | 1.2 | -3
> CCSc1ccc([C@@H]2[C@@H]3C(=O)N(C)C(=O)[C@@H]3[C@]3(C(=O)OC)CCCCN23)cc1OC
    -2.8 | -11 | -0.1% | -1 | -0.4 | -7
> COc1ccc2c(CC(=O)NNC(=O)c3ccc(O)cc3)coc2c1
    0.1 | -11 | 1.2% | 2 | -0.9 | 11
> COc1ccc(S(=O)(=O)N2CCCCCC2)cc1C(=O)N(C)CC(=O)Nc1ccccc1Br
    -1.7 | 3 | 4.3% | -22 | 0.4 | -6
> COc1ccc(CCNC(=O)c2nnc(Cc3ccc(Cl)cc3)o2)cc1OC
    -3.3 | -8 | 4.8%&0.9% | 0 | 0.8&-1.0 | 20&-6
> N#CC1C(=O)NC(c2ccccc2)=CC1c1ccccc1 (stereo unspecified)
    -17 | 6 | -3.0% | 1 | 1.7 | 18
> COC(=O)c1ccc(COc2cccc3c2OC(C)(C)C3)cc1
    0.6 | -8 | 5.7% | -2 | 1.9 | 15
> COC(=O)c1ccc(Nc2nc(N3CCOCC3)nc(N3CCOCC3)n2)cc1
    -5.3 | 4 | 2.1% | 7 | -1.2 | -7
> Cc1ccc(CSCc2ccc(C(=O)NCC3CCCO3)o2)cc1 (stereo unspecified)
    -3.7 | 3 | 1.6% | 0 | -0.1 | 18
> CCC(C)n1c(=N)c(S(=O)(=O)c2ccc(C)cc2)cc2c(=O)n3cc(C)ccc3nc21 (stereo unspecified)
    nt | nt | 28% | nt | 0.7 | -18
> COc1ccc(N2C(=O)c3ccccc3NC2c2cccnc2)cc1 (stereo unspecified)
    -4.2 | 8 | -1.1% | 5 | -1.2 | 59
> Cc1[nH]c2ccccc2c1/C=N\NC(=O)CNc1ccc2c(c1)OCO2
    -2.1 | -13 | -0.7% | -5 | -0.9 | 4
> Cc1ccc(N2C(=O)CC3(CC4C=CC3C4)C2=O)cc1 (stereo unspecified)
    -2.2 | 4 | 2.8% | 3 | -0.8 | 10
> O=C(Nc1nnc(C2CC2)s1)C1=NN(C2CCS(=O)(=O)C2)C(=O)CC1 (stereo unspecified)
    1.6 | 3 | 1.0% | 5 | 0.1 | -5
> O=C(NCc1ccccc1)c1cc(C2CCCN(C(=O)c3ccc4c(c3)CCO4)C2)on1 (stereo unspecified)
    -5.0 | 6 | 0.5% | 9 | -0.8 | nt
> N#CN=C1CCCCCN1CC(N)=O
    -3.7 | 4 | 12%[38.3 µM] | 6 | -0.4 | -2

Single records, from the list above. Values in the order: D2 ag, Six1-Eya2 blk, PINK1 modulator, CtBP-E1A inh, TRPML1 agonist, TRPML1 inh
`O=C(CN1CCCC1c1cccs1)N1CCN(S(=O)(=O)c2cccc(F)c2)CC1` (stereo unspecified) reads -2.0, 0, 1.7%, -15, 1.7, -10
`CS(=O)(=O)Nc1nc2n(n1)C(c1ccccc1)C=C(c1ccc(Br)cc1)N2` (stereo unspecified) reads ?, -5, -0.2%, 4, ?, 6
`Cn1c(=O)cc(-c2ccccc2)c2ccccc21` reads -0.6, 4, 6.2%[38.3 µM], 3, 0.5, 3
`COc1ccccc1CNC(=O)c1ccc(CNc2c(N3CCCC3)c(=O)c2=O)cc1` reads -1.8, -2, -0.8%, 0, -0.2, -17
`Cc1ccc(-n2cc(CNCCCN3CCCC3=O)c(-c3ccc(F)cc3)n2)cc1` reads 6.7, -4, 8.9%, 2, 1.7, 14

Assay outcomes deposited in PubChem BioAssay by National Center for Advancing Translational Sciences (NCATS).
